# TRPV1 PAM: potentiators of human vanilloid receptor 1 (TRPV1). Q8NER1. TRPV1-expressing cells, Fluo-8 calcium influx, capsaicin EC20 potentiation; host cell line not named in the record; control for the full effect not named in the record. potentiation, % at 8.33 µM. actives 0.02% (n = 320,000); active means potentiation above 80%; inconclusive means 30% to 80%; inactive means below 30%; note: 0% is about no effect
# Target sequence (Q8NER1 whole entry, looked up): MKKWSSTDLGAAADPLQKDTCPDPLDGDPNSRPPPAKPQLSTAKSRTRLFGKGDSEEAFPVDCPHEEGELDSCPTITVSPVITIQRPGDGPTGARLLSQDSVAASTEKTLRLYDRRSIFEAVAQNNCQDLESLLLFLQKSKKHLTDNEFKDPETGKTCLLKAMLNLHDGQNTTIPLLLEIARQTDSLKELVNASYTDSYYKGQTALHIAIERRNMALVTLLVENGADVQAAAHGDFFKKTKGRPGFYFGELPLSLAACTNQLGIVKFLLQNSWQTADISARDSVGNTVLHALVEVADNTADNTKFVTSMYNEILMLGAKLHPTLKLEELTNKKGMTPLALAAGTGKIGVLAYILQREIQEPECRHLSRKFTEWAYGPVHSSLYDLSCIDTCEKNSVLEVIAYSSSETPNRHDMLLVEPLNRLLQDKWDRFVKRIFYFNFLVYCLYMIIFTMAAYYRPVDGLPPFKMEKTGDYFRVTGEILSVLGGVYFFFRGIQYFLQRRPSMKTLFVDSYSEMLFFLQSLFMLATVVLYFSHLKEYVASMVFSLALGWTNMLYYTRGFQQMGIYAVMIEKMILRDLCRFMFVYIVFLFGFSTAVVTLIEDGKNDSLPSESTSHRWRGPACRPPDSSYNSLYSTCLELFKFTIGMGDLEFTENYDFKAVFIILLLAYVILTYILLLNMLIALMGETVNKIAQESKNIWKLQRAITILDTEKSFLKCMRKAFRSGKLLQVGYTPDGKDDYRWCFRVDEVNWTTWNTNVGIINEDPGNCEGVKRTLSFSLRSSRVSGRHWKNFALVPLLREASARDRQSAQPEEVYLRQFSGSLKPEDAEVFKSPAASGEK
#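 Cells expressing TRPV1 were dye-loaded with Fluo-8 and read kinetically: 10 s baseline, 3 min after compound (agonist portion), then 2 min after EC20 capsaicin (allosteric enhancer portion). Calcium-bound dye fluorescence at 480/520 nm.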
# ClpP mod: qHTS Assay for Activators of ClpP | AID 651965, 2013 | Potency, µM (series often up to 57.5 µM), for the others: top-dose activity change, negative = active | purified B. subtilis ClpP, FRET peptide cleavage, 20 min | actives 1.9% (n = 340,000) | ATP-dependent Clp protease proteolytic subunit (Bacillus subtilis (strain 168)), P80244; active = well fitted falling curve with a large enough effect; inconclusive = small, poorly fitted or top-dose-only effect; inactive = no such curve, though single readings can be large or run the other way; note: potency is the fitted concentration of half-maximal effect; the source files actives as falling curves though it sought activators and does not explain the sign; nearly all actives have a fitted effect of over 65% in size; many hits overshoot -100%
# Target sequence (P80244 whole entry, looked up): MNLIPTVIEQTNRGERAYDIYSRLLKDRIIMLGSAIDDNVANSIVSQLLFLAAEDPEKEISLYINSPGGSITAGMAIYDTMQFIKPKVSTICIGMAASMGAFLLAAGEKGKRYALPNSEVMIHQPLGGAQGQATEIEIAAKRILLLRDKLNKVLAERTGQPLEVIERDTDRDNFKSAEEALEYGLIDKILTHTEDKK
#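 ClpP 10 microg/mL final, pH 8 Tris/KCl buffer with BSA, glycerol, Tween-20; compound pinned in; FRET-FV substrate; RT 20 min; Ex320/Em430; ΔFRET vs ADEP 5.8 microM, DMSO, no enzyme.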
# CtBP-E1A inh: blocks the CtBP interaction with E1A; actives 0.49% (n = 340,000); AID 651724; AlphaScreen GST-E1A/His-CtBP binding, 1536-well; hits give low values; control for the full effect not named in the record; activity change, % (no concentration beside the values); in the data active means activity change below about -65%; inconclusive means about -30% to -65%; inactive means above about -30%; note: % is set by controls: 0 for no effect and ±100 for the full control effect; compound concentration not given in the record
#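 In 5 uL wells, 23 nL compound meets equimolar GST-E1A and His-CtBP (5X stock 125 nM each) for 2 h, 37 °C. Beads (5X, 50 ug/mL) then 1 h, 37 °C, dark.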
# gsp ag: gsp mutant agonism | actives 0.13% (n = 340,000) | Potency, µM (series often up to 76.9 µM), without a hit: top-dose activation (cAMP increase), most hits filed as activators | gsp mutant cells, cAMP HTRF, 30 min; control for the full effect not named in the record; active = well fitted activation curve with a large enough effect; inconclusive = small, poorly fitted or top-dose-only effect, or another doubt; inactive = no such curve, though single readings can be large or run the other way; cell line not stated here;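 note: phosphodiesterase inhibitor Ro 20-1724 added with compounds to block cAMP breakdown; potency is the fitted concentration of half-maximal effect; nearly all actives have a fitted effect of over 60% in size; about a fifth of the inactives were tested at one dose only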
#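 Cells stably selected in G418 were plated at 2000/well, grown 16-24 hr, then given compounds in DMSO with the PDE inhibitor […] (300 uM solution added) for 30 min at 37C; cAMP was read by HTRF.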
# Menin-MLL FL inh: inhibitors of human menin-MLL interaction, wild-type MLL peptide. Fluorescence polarization, fluorescein-MLL peptide displacement from menin. FP activity change, % at 61.4 µM. 290,000 tested, under 10 active. AID 1766; inconclusive = falling polarisation curve, or a change in total fluorescence; inactive = total fluorescence flat and polarisation flat or rising; no compound was filed as active; the % refers to the polarisation; negative = inhibition;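 note: % of control where 0% means no effect; inhibitors lower the polarisation; unlabelled MLL peptide was the positive control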
# gsp antagonist: antagonizes gsp, the McCune-Albright syndrome mutation; AID 624288; actives 0.4% (n = 340,000); gsp-mutant cells, cAMP HTRF, 30 min; control for the full effect not named in the record; Potency, µM (titrated, usually from 76.9 µM), inactives show at the highest dose activity change, negative = inhibition, most hits filed as inhibitors; active = falling curve of any shape with a large fitted effect; inconclusive = falling curve, mostly with a smaller effect; inactive = flat or rising curve; cell line not stated here;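 note: intracellular cAMP measured with PDE inhibitor Ro 20-1724 present during compound exposure; potency is the fitted concentration of half-maximal effect; % is set by controls: 0 for no effect and ±100 for the full control effect; nearly all actives have a fitted effect of over 65% in size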
#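 G418-selected cells were plated in DMEM/10% FBS for 16-24 h at 37C, then treated with compounds plus the PDE inhibitor […] (300 uM solution added) for 30 min at 37C. Intracellular cAMP was measured by HTRF after 30 min lysis at room temperature.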
# Sfp PPTase inh: blocks B. subtilis Sfp PPTase activity; Q9F4F7; Biochemical Sfp PPTase activity, qHTS; Potency, µM, without a hit: max response, negative = inhibition, most hits filed as inhibitors; actives 3.5% (n = 310,000); AID 1490; active = well fitted inhibition curve with a large enough effect; inconclusive = small, poorly fitted or top-dose-only effect, or another doubt; inactive = no such curve, though single readings can be large or run the other way;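 note: the enzyme is Sfp with the accession as filed and its product quenches rhodamine fluorescence; potency is the fitted concentration of half-maximal effect; 0% = enzyme reaction without inhibitor and -100% = no enzyme wells; top concentration of the series not given in the record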
#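 With Hepes-Na pH 7.6 buffer containing 10 mM MgCl2, Sfp (15 nM) modified BHQ-2-YbbR (12.5 uM) using rhodamine-CoA (5 uM). Two reads 30 minutes apart at 525/598 nm yielded each well's rate.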
# Starred values were filed as active, the others as inactive; ? = inconclusive; . = no result given; & = joins results of further samples; [ ] = dose if it differs, or a comment.
SMILES,TRPV1 PAM,ClpP mod,CtBP-E1A inh,gsp ag,Menin-MLL FL inh,gsp antagonist,Sfp PPTase inh
COc1ccccc1-c1cn[nH]c1-c1ccc(OCc2ccc(F)cc2)cc1O,15,-13%,-2,-66%[inhibitor],2.2,-8%,22%
CC1CC(C)CN(S(=O)(=O)c2ccc(C(=O)Nc3nnc(-c4cccs4)o3)cc2)C1 (stereo not given),11,-1.9%,-3,-9%,0.4,?,-3%
CCOc1ccccc1Nc1nc(N)nc(CSc2nncn2C)n1,22,-1.1%,-20,2%,2.6,9%,14%
Cc1cc(Cl)ccc1NC(=O)CCN1C(=O)NC(C)(C)C1=O,13,-0.2%,4,-30%,.,-7%,.
CCN(CC)C(=O)C1CCN(S(=O)(=O)c2ccc3c(c2)CCCN3C(=O)C2CCC2)CC1,1,-1.1%,5,7%,.,-19%,10%
CCOC(=O)c1ccc(N(CC2CO2)S(=O)(=O)c2ccc(C)cc2)cc1 (stereo not given),.,.,4,26%,.,-9%,.
COc1ccc(/C(N)=N/OC(=O)Oc2ccccc2)cc1,5,-1.5%,9,25%,0.8,-12%,?
CCOC(=O)c1nccnc1C(=O)Nc1ccc(C(F)(F)F)cc1,-16,-0.3%,-2,21%[15.4 µM],1.2,1%,5%
Cc1noc(C)c1NC(=O)Nc1ccc2c(c1)C(=O)N([C@H](C)CO)C[C@H](C)[C@@H](CN(C)C(=O)Nc1ccc(C(F)(F)F)cc1)O2,.,-6.2%,-22,.,.,0%,.
Cc1ccc(OCC(=O)Nc2ccc(F)cc2)cc1,-16,-2.4%,1,-13%,2.0,5%,7%
N#CC1(C#N)CC(C=O)=C(N)C1(C#N)CC(=O)c1ccc(F)cc1 (stereo not given),-3,-24%,-9,2%,?,4%,-25%
CCOC(=O)c1c(/N=C/N(C)C)sc2c1CCC2,0,-3.9%,0,-13%,-8.0,-1%,-9%
c1ccc(C2=NC(c3ccccc3)N=C(c3ccccc3)N2)cc1,2,-1.3%,-3,1%,4.3,-13%,23%
O=C(CO/N=C/c1ccccc1O)N1CCc2ccccc21,3,-5.3%,3,-9%,3.9,-3%,8%
C/C(=N\NC(=S)NCCc1ccccc1)c1cccc(Br)c1,12,-1.6%,-28,8%[15.4 µM],1.1,-13%,-3%
Nc1c(C(=O)O)nnn1Cc1ccccc1,14,-2.6%,-3,10%,-0.8,13%,-4%
Cc1ccc(N/C=C2\CCCCC2=O)nc1,1,.,12,15%[15.4 µM],-2.3,-4%,18%
C[C@@H](CN1C2=NC[C@H](Cc3ccccc3)N2C[C@H]1Cc1ccc(O)cc1)NC(=O)CCC1CCCCC1,-13,1.0%,-9,7%,-4.4,2%,?
O=C(c1ccc(Cl)c(F)c1F)N1CCOCC1,2,-2.7%,-5,?,-0.3,15%,5%
CCCn1c(SCC(=O)NC)nc2sc3c(c2c1=O)CCC3,-29,.,-1,0%[15.4 µM],-2.0,3%,-3%
COCCCNC(=O)/C(=C\c1cccn1C)NC(=O)c1cccs1,1,-29%,0,7%[15.4 µM],0.5,-9%,14%
O=C(Nc1cc(Cl)ccc1Cl)C1CC(=O)N(c2ccccc2)C1 (stereo not given),-10,0.8%,15,-6%[15.4 µM],2.5,14%,19%
Cc1cc(C)c(S(=O)(=O)N2CCN(C(=O)c3cc4ccccc4o3)CC2)c(C)c1,12,-7.1%,-1,?,.,-19%,.
S=C(NCc1ccccc1)N1CCN(C2CCCCC2)CC1,-14,1.4%,3,6%,-1.3,4%,17%
CCOC(=O)c1c(N)sc(C(=O)N2CCCC2)c1C,-2,-3.2%,-2,21%,-1.8,5%,2%
O=C(CNC(=O)c1cccs1)NCCc1ccco1,5,1.8%,11,1%,.,6%,.
Cc1nc(N2CCCCCC2)c2ccccc2n1,13,-2.9%,.,11%,?,-3%,0%
S=c1[nH]nc(-c2ccco2)n1/N=C/C=C/c1ccco1,27,0.5%,12,8%,?,-20%,-42%
Cc1cc(C)c2c(=O)c(/C=C3\NC(=S)NC3=O)coc2c1,4,.,.,.,5.9,.,12%
CCC(=O)c1ccc(OCC(=O)OCC(=O)NC2CCCC2)cc1,4,-4.8%,-18,-64%[inhibitor],.,-10%,.
Cc1nn(C(C)C(=O)N2CCCCC2)c(=O)c2c1sc1ccccc12 (stereo not given),10,-15%,2,15%,-4.6,-1%,-10%
COC(=O)c1ccccc1NC(=O)c1cc(-c2ccc(C)cc2)on1,-10,-3.1%,-8,-40%,4.3,10%,14%
CC(=O)c1ccc(NC(=O)CCCCCn2nnc3ccccc3c2=O)cc1,19,0.2%,.,25%,?,-2%,-6%
CN(C)CCCN(C(=O)c1ccc(S(=O)(=O)N2CCCCCC2)cc1)c1nc2ccc(F)cc2s1,-15,-0.4%,?,-50%[inhibitor],.,3%,-7%
Cc1nnc(NC(=O)CSc2nnc(CC(=O)Nc3ccccc3F)n2C)s1,0,.,-5,9%,-14,4%,3%
CCN(C(=O)COC(=O)/C=C/c1c(C)nn(-c2ccccc2)c1C)C1CCS(=O)(=O)C1 (stereo not given),0,.,-71*,35%,2.2,2%,17%
O=C1N(c2cccc(Cl)c2)C(c2ccc(Cl)cc2)N2CCCN12 (stereo not given),4,?,1,-30%,0.7,-8%,9%
CCN(CC)S(=O)(=O)c1cc([N+](=O)[O-])ccc1NNC(=O)Nc1ccccc1,-1,-5.0%,-13,24%,-1.0,?,56µM*
COc1ccccc1NC(=O)CCc1c(C)nc2c(-c3ccc(F)cc3)c(C)nn2c1C,-21,.,2,8%[15.4 µM],5.7,-19%,?
NC(=O)COC(=O)c1cc(-c2ccco2)nc2ccccc12,-21,.,-13,23%[15.4 µM],?,-2%,-29%
CC(=O)OCC1=C(C(=O)O)N2C(=O)C(NC(=O)CC(C)c3ccccc3)C2SC1 (stereo not given),-6,0.6%,1,16%,.,-2%,.
CCOC(=O)c1c(-c2ccccc2)oc2cc(CN(C)C)c(O)c(CN(C)C)c12,.,-1.7%,-10,?,.,10%,.
N#Cc1cc([N+](=O)[O-])ccc1NC(=O)COC(=O)CCC1CCCCC1,-8,.,.,.,-1.4,.,-10%
O=S(=O)(Nc1ccc(-c2ccc3nncn3n2)cc1)c1ccccc1Cl,-15,-1.9%,-4,22%,.,0%,.
CCC1CCCCN1C(=O)CSc1nnc(-c2ccc3c(c2)OCCO3)o1 (stereo not given),7,-4.1%,2,-25%,1.0,-3%,-6%
COc1ccc(C)cc1S(=O)(=O)N1CCN(S(=O)(=O)c2cc(C)ccc2OC)CC1,0,-6.4%,9,-25%,4.4,-4%,18%
COc1ccc(OC)c(S(=O)(=O)Nc2ccc3c(c2)N(C(C)=O)CCC3)c1,-9,1.3%,1,-11%,.,-14%,.
COc1ccc(-c2[nH]ncc2CN2CCN(C(=O)c3ccco3)CC2)cc1F,-4,.,0,13%,-2.9,-8%,8%
Cc1ccccc1C(=O)NC1CCN(Cc2ccccc2)CC1,2,.,4,4%[15.4 µM],-0.4,13%,6%
C[C@@H]1CN([C@@H](C)CO)C(=O)c2cc(Br)cnc2O[C@@H]1CN(C)C(=O)CN(C)C,.,0.5%,3,-91%[inhibitor],.,.,.
O=C(CSc1ccccc1)Nc1ccc(Cl)c(S(=O)(=O)N2CCOCC2)c1,.,.,-7,15%,.,-2%,.
O=C1c2cccnc2C(=O)N1Cc1ccc(S(=O)(=O)N2CCOc3ccccc32)cc1,28,0.6%,-19,36%,.,-10%,4%
COc1cccc(NC(=O)Nc2ccccc2C(N)=O)c1,1,.,2,-31%[inhibitor],-0.8,-7%,9%
CCOCCCNC(=O)C(c1ccc(C)cc1)N1CCOCC1 (stereo not given),.,-0.3%,1,-12%,4.0,8%,10%
CCOP(=O)(CC(C(C)=O)C(O)c1ccccc1)OCC (stereo not given),15,-1.5%,-8,.,4.9[11.7 µM],-5%,-7%&2%
O=C(c1cccc(S(=O)(=O)N2CCOCC2)c1)N(Cc1ccc(F)cc1)Cc1ccco1,-1,0.0%,-10,-10%,2.9,?,8%
O=C(COC(=O)COc1ccc(Br)cc1)NCC1CCCO1 (stereo not given),.,-0.5%,3,5%[15.4 µM],.,-3%,.
Cc1ccc(S(=O)(=O)N2CCC(C(=O)OCC(=O)NCCc3ccccc3)CC2)cc1C,-1,-1.9%,7,-47%,.,4%,.
COC(=O)c1ccc(CSc2nnc(NC(C)C)s2)o1,5,.,2,-6%,-1.1,3%,19%
CC(=O)c1c(C)[nH]c(C(=O)NCc2cccc(Cl)c2)c1C,-2,.,2,6%[15.4 µM],-0.5,-13%,10%
# Following part
SMILES,TRPV1 PAM,ClpP mod,CtBP-E1A inh,gsp ag,Menin-MLL FL inh,gsp antagonist,Sfp PPTase inh
COc1cccc(-c2csc(N3CCN(C(=O)C4CCCCC4)CC3)n2)c1,-11,-3.0%,-8,3%,-5.7,?,?
O=C(COC(=O)c1ccccn1)NCCCc1ccccc1,11,0.3%,-1,?,2.0,5%,4%
COc1ccc(CCNC(=O)CNC(=O)c2ccc3c(c2)OCO3)cc1OC,-23,.,-1,-4%[15.4 µM],-21,3%,12%
CCN(c1cccc(C)c1)S(=O)(=O)c1c(C)[nH]c(C)c1C(=O)N1CCCCC1,4,0.4%,3,2%,4.1,-2%,15%
O=C1c2ccccc2CCCC12N=NCC2c1cccc2ccccc12 (stereo not given),19,-3.6%,0,5%,3.8,?,0%
COc1ccc(CCNC(=O)CSC(=O)c2ccccc2)cc1OC,-3,-0.9%,0,?,3.1,-2%,45µM*
C[C@@H]1CN([C@H](C)CO)C(=O)CCCn2nncc2CO[C@@H]1CN(C)S(=O)(=O)c1ccccc1C#N,.,-3.6%,-24,24%,.,.,.
CCn1c(SCC(=O)N2CCc3ccccc3C2)nc2sc(C)c(C)c2c1=O,-9,1.5%,-14,-32%,2.5,-11%,-15%
O=C(CN1CCc2ccccc2C1)NCc1ccco1,?,1.9%,2,0%,4.9,-5%,7%
COc1ccc(C(=O)OCC(=O)c2c(N)n(C)c(=O)n(C)c2=O)cc1OC,2,.,0,23%[15.4 µM],1.0,.,16%

# From PubChem BioAssay
